# Compound activity (PubChem)
# RE007 growth inh = qHTS Assay for Inhibitors of the HIV-1 protein Vpr; S. pombe RE007 Vpr strain, BacTiter-Glo ATP luminescence, 24 h; control for the full effect not named in the record; Potency, µM (top dose mostly 92.2 µM), for inactives: top-dose activity change, negative = less growth; 360,000 tested, 0.21% active; active = well fitted falling curve with a large enough effect; inconclusive = small, poorly fitted or top-dose-only effect; inactive = no such curve, though single readings can be large or run the other way;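 note: nearly all actives have a fitted effect of over 50% in size; the assay follows cell death caused by Vpr and the record does not say whether a fall means rescue or toxicity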
#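 Fission yeast RE007 carrying one integrated HIV-1 vpr copy, seeded at OD 0.01 in PMG+AL medium with 23 nL pinned compound. Grown 24 h at 30 degrees; viability read by BacTiter-Glo luminescence after 5 min.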
# 2A StopGo = High Throughput Screening for Foot and Mouth Disease Virus Antivirals; human cells with a luciferase reporter of 2A StopGo recoding; control for the full effect not named in the record; Potency, µM (highest dose often 57.9 µM), without a hit: top-dose signal change, negative = less light; 410,000 tested, 1.2% active; AID 1159524, 2015; active = well fitted falling curve with a large enough effect; inconclusive = small, poorly fitted or top-dose-only effect; inactive = no such curve, though single readings can be large or run the other way; tested in HEK293T cells; note: nearly all actives have a fitted effect of over 45% in size; luciferase light after 4 h
# An asterisk follows results filed as active; u = inconclusive; [ ] = remark or other dose. % is set by controls: 0 for no effect and ±100 for the full control effect; potency is the fitted concentration of half-maximal effect. Not all compounds are listed, so the mix of outcomes need not match the whole.
SMILES,RE007 growth inh,2A StopGo
CSc1ncnc2c1ncn2CCCN1CCN(c2ncccn2)CC1,3%,-21%
COc1cc(OC)nc(Nc2nc(C(N)Cc3ccc(Cl)cc3)cs2)n1 (stereo not drawn),6%,u
O=C(COC(=O)c1ccc(Cl)c(S(=O)(=O)N2CCCCCC2)c1)NCc1ccccc1,-17%,-26%
CC(=O)Nc1cccc(-c2ccnc3c2CC(C)(C(=O)NCc2cccs2)O3)c1 (stereo not drawn),-13%,-24%
CC(C)N1CCC1(C)C(=O)Nc1ccc2cn[nH]c2c1 (stereo not drawn),-5%[18.4 µM],-15%
O=C(CC[C@H]1O[C@@H](n2ccc(=O)[nH]c2=O)[C@H](O)[C@@H]1O)NCC1CCCO1 (stereo partly drawn),1%,-6%
N#Cc1ccc(OCc2c(-c3ccccc3)nnn2CC(=O)O)cc1,2%,-9%
COc1cc(Nc2cccc(-c3ccccc3)n2)cc(OC)c1OC,14%,-10%
COc1ccc(NC(=O)c2cc(-c3cc(F)ccc3OC(C)C)n[nH]2)c(C)c1,-13%,-21%
CCCCC1CCC(C(=O)N(CCC(C)C)c2c(N)n(CCCC)c(=O)[nH]c2=O)CC1 (stereo not drawn),5%,-20%
C=CCOC(=O)C1=C[C@@H](c2ccc(C(F)(F)F)cc2)C[C@@H](OCCCCO)O1,-16%,-22%
O=C(Cc1c(Cl)cccc1Cl)OCC(=O)c1ccc[nH]1,8%,33%[activator]
O=C(Nc1ccccc1Cl)c1cc(C2CCCN(S(=O)(=O)c3cccs3)C2)on1 (stereo not drawn),-3%,0%
CSc1ncnc2c1ncn2CCCN1CCN(Cc2cccc3ccccc23)CC1,-13%,-15%
CCc1ccc(-c2n[nH]nc2C2=CC(=O)C[C@H](c3ccc(F)cc3)C2)cc1,-28%,u
CC(=O)Nc1ccc(NC(=O)c2csc([C@@H]3O[C@H](CO)[C@H](O)[C@H](O)[C@H]3O)n2)cc1,23%[18.4 µM],-13%
CC(C)C(N)c1csc(NC(=O)Nc2cccc(C(F)(F)F)c2)n1 (stereo not drawn),-5%,-12%
Cc1nc(C(F)(F)F)ccc1C(=O)N1CCC1(C)C(=O)NS(=O)(=O)c1cccc(Cl)c1 (stereo not drawn),-8%,-19%
CCCC#Cc1cnc2c(c1)C(=O)N([C@H](C)CO)C[C@H](C)[C@@H](CN(C)C(=O)CCN1CCCCC1)O2,4%,3%
c1ccc(CN2CCC3CC2c2cc(N4CCCCC4)ccc23)cc1 (stereo not drawn),6%,-24%
COc1ccc(S(=O)(=O)N2CCCCCC2)cc1C(=O)N1CCN(C(C)=O)CC1,3%,-20%
C[C@@H]1CN([C@H](C)CO)C(=O)CCCn2nncc2CO[C@H]1CN(C)Cc1ccc(Oc2ccccc2)cc1,-2%,-25%
CC1(C(=O)NCc2ccccc2)CSCC(=O)N1CCOc1ccccc1 (stereo not drawn),-19%,-10%
C[C@H](CO)N1C[C@H](C)[C@@H](CN(C)C(=O)Nc2ccc(N3CCN(C)CC3)cc2)OCc2cnnn2CCCC1=O,7%,2%
CC(C)NC(=O)Nc1nnc([C@@H]2C[C@H](O)[C@@H](CO)O2)s1,5%[18.4 µM],-12%

# Arranged by SMILES length (rising): some entries from above
SMILES,RE007 growth inh,2A StopGo
CC(C)N1CCC1(C)C(=O)Nc1ccc2cn[nH]c2c1 (stereo not drawn),-5%[18.4 µM],-15%
O=C(Cc1c(Cl)cccc1Cl)OCC(=O)c1ccc[nH]1,8%,33%[activator]
COc1cc(Nc2cccc(-c3ccccc3)n2)cc(OC)c1OC,14%,-10%
c1ccc(CN2CCC3CC2c2cc(N4CCCCC4)ccc23)cc1 (stereo not drawn),6%,-24%
N#Cc1ccc(OCc2c(-c3ccccc3)nnn2CC(=O)O)cc1,2%,-9%
CC1(C(=O)NCc2ccccc2)CSCC(=O)N1CCOc1ccccc1 (stereo not drawn),-19%,-10%
CC(C)C(N)c1csc(NC(=O)Nc2cccc(C(F)(F)F)c2)n1 (stereo not drawn),-5%,-12%
CC(C)NC(=O)Nc1nnc([C@@H]2C[C@H](O)[C@@H](CO)O2)s1,5%[18.4 µM],-12%
CC(=O)Nc1cccc(-c2ccnc3c2CC(C)(C(=O)NCc2cccs2)O3)c1 (stereo not drawn),-13%,-24%
COc1ccc(NC(=O)c2cc(-c3cc(F)ccc3OC(C)C)n[nH]2)c(C)c1,-13%,-21%
CCc1ccc(-c2n[nH]nc2C2=CC(=O)C[C@H](c3ccc(F)cc3)C2)cc1,-28%,u
O=C(COC(=O)c1ccc(Cl)c(S(=O)(=O)N2CCCCCC2)c1)NCc1ccccc1,-17%,-26%
CCCCC1CCC(C(=O)N(CCC(C)C)c2c(N)n(CCCC)c(=O)[nH]c2=O)CC1 (stereo not drawn),5%,-20%
C=CCOC(=O)C1=C[C@@H](c2ccc(C(F)(F)F)cc2)C[C@@H](OCCCCO)O1,-16%,-22%
Cc1nc(C(F)(F)F)ccc1C(=O)N1CCC1(C)C(=O)NS(=O)(=O)c1cccc(Cl)c1 (stereo not drawn),-8%,-19%
O=C(CC[C@H]1O[C@@H](n2ccc(=O)[nH]c2=O)[C@H](O)[C@@H]1O)NCC1CCCO1 (stereo partly drawn),1%,-6%
C[C@@H]1CN([C@H](C)CO)C(=O)CCCn2nncc2CO[C@H]1CN(C)Cc1ccc(Oc2ccccc2)cc1,-2%,-25%
CC(=O)Nc1ccc(NC(=O)c2csc([C@@H]3O[C@H](CO)[C@H](O)[C@H](O)[C@H]3O)n2)cc1,23%[18.4 µM],-13%
CCCC#Cc1cnc2c(c1)C(=O)N([C@H](C)CO)C[C@H](C)[C@@H](CN(C)C(=O)CCN1CCCCC1)O2,4%,3%
C[C@H](CO)N1C[C@H](C)[C@@H](CN(C)C(=O)Nc2ccc(N3CCN(C)CC3)cc2)OCc2cnnn2CCCC1=O,7%,2%

# Additional entries follow:
SMILES,RE007 growth inh,2A StopGo
COc1ccc(CN(C)[C@H]2C[C@H]3c4[nH]c5ccccc5c4CCN3C[C@H]2[C@H](C)O)cc1,-5%,-3%
COc1ccc(C(=O)OCC(=O)N(Cc2ccccc2)Cc2ccccc2)c(O)c1,-6%,-28%
CN1OC[C@@H]2CN(C(=S)NCCc3ccccc3)[C@H](c3ccccc3Br)C[C@@H]21,-5%,12%
CC(C)c1ccc(NC(=O)C2(C)Cc3c(-c4ccc(N(C)C)cc4)ccnc3O2)cc1 (stereo not drawn),14%,-17%
CCCC(=O)Nc1c(-c2ccccc2)[nH][nH]c1=O,7%,-7%
CC1(C)CC(=O)C=C(c2n[nH]nc2C2=CCCCC2)C1,-4%,-19%
COc1ccccc1C(=O)N1CCN(C(=O)[C@H]2O[C@@H](n3cnc4c(N)ncnc43)[C@H](O)[C@@H]2O)CC1,9%,0%
Cc1ccc(OCCCN2CCC(C(O)(c3ccccc3)c3ccccc3)CC2)cc1,-5%,-27%
CC1(C)OC(=O)C2=C(C[C@@H](C3CCCCC3)O[C@H]2c2ccc(F)cc2)O1,-24%,-9%
CCCNC(=O)C1(CC2CC(c3ccccc3)=NO2)CCN(C(=O)C2(C)CC2)CC1 (stereo not drawn),-1%,3%
CC(=O)C12CC(C)=C(C)CC1CC1C3CCC4=CC(=O)CCC4(C)C3CCC12C (stereo not drawn),1%,u
O=C(O)Cn1ccc2cc(S(=O)(=O)N3CCCCC3)ccc21,14%,-19%
Cc1cnc(C)c(Nc2nc(C(N)c3ccccc3)cs2)n1 (stereo not drawn),-7%[18.4 µM],-3%
CCc1ccccc1NC(=O)C1CCCC1,6%,-13%
COc1cccc(NC(=O)N(C)C[C@H]2Oc3ncc(Br)cc3C(=O)N([C@H](C)CO)C[C@H]2C)c1,-4%,-12%
C[C@@H]1CN([C@H](C)CO)C(=O)CCCn2nncc2CO[C@@H]1CN(C)C(=O)OCc1ccccc1,0%,-3%
COc1ccc(CNC(=O)c2sc(=O)n(Cc3ccc(C)cc3)c2C)cc1,-20%[18.4 µM],-28%
COc1ccc(NC(=O)N(C)C[C@H]2OCc3cnnn3CCCC(=O)N([C@@H](C)CO)C[C@H]2C)cc1,0%,-16%
CC(=O)c1cc2cccc(OC3(C)CCN(Cc4ccc5ccccc5c4)C3)c2o1 (stereo not drawn),-14%,-21%
CCCCCCN1CCN(C2CN(CCc3ccccc3)S(=O)(=O)C2)CC1 (stereo not drawn),-16%,-20%
O=S1(=O)N[C@H](Cc2ccccc2)COc2cccc(N3CCC[C@H]3CO)c21,3%,-20%
C/C(CC(=O)Nc1ccccc1C(F)(F)F)=N\NC(=O)c1cnccn1,-2%,0%
O=C(Nc1cc(C(F)(F)F)cc(C(F)(F)F)c1)O[C@@H]1c2ccccc2[C@@H]2Cc3csc[n+]3[C@H]12,-25%,-12%
CCCS(=O)(=O)NC(=O)C1(C)CCN(C(=O)C2(c3ccc(Cl)cc3)CCCC2)C1 (stereo not drawn),3%,-17%
COc1cc2nc3n(c(=O)c2cc1OC)-c1cc2ccccc2cc1C(=O)NC3CC(C)C (stereo not drawn),u,-27%

# Overlap with the part before: 2 entries; new compounds follow.
SMILES,RE007 growth inh,2A StopGo
CCCS(=O)(=O)NC(=O)C1(C)CCN(C(=O)C2(c3ccc(Cl)cc3)CCCC2)C1 (stereo not drawn),3%,-17%
COc1cc2nc3n(c(=O)c2cc1OC)-c1cc2ccccc2cc1C(=O)NC3CC(C)C (stereo not drawn),u,-27%
COC(=O)/C=C1\OC(C2CC2)c2ccccc21 (stereo not drawn),-21%,-9%
CCCN(C)C1CN(Cc2cn(Cc3cccc(C(F)(F)F)c3)nn2)S(=O)(=O)C1 (stereo not drawn),0%,-13%
CC(=O)Nc1ccc(-c2ccnc3c2CC(C(=O)Nc2ccccc2)O3)cc1 (stereo not drawn),-10%[18.4 µM],-18%
CC(=O)OCC(=O)C1CCC2C3CC=C4CC(O)CCC4(C)C3CCC12C (stereo not drawn),0%,0%
CCc1nc2c(OCc3ccccc3C)cccn2c1N(C)C(=O)CC(C)C,-8%,u
C[C@H]1CN([C@@H](C)CO)C(=O)CCCn2cc(nn2)CO[C@@H]1CN(C)C(=O)Nc1cccc(Oc2ccccn2)c1,9%,-8%
Cc1ccc(S(=O)(=O)N2Cc3ccccc3CC2C(N)=O)cc1 (stereo not drawn),-7%,0%
O=C(NCCCN1CCOCC1)C(=O)NCC1OCCN1S(=O)(=O)c1ccc(Cl)cc1 (stereo not drawn),-10%,-15%
Cc1ccc([C@H]2N[C@]3(CCCN(Cc4ccc(Br)cc4)C3=O)[C@H]3C(=O)N(Cc4ccccc4)C(=O)[C@@H]23)cc1,2%,-19%
CCCCn1nc(C(=O)NC2CCCCC2)c2ccccc2c1=O,15%,0%
Cc1ccc(C(O)c2ncc(-c3ccc4ccccc4c3)[nH]2)cc1 (stereo not drawn),7%,15%
Cc1ccc(CN(C)C[C@@H]2OCc3cnnn3CCCC(=O)N([C@@H](C)CO)C[C@H]2C)cc1,6%,-20%
Nc1nc(=O)n(C2OC(CO)C(O)C2O)cc1F (stereo not drawn),12%,-4%
CC(C)c1ccc(CC(=O)N2CCC2(C)C(=O)NCCC#N)cc1 (stereo not drawn),0%,-5%
CC1=C(C(=O)OCc2ccccc2)C(c2ccc3c(c2)OCO3)NC(=O)N1CCCC(=O)O (stereo not drawn),9%,-14%
O=c1[nH]c(=S)[nH]c2c1[C@H](C1CC1)O[C@H](CCc1ccccc1)C2,1%,-23%
CCOC1=C2CN(S(=O)(=O)c3ccc(C)cc3)[C@@H](c3cccc4ccccc34)C[C@H]2[C@H]2C(=O)N(c3ccccc3)C(=O)[C@H]2C1,3%,-16%
O=c1cc(CN2CCN(c3ccc(Cl)c(Cl)c3)CC2)c2c(ccc3ccccc32)o1,-9%,-8%
CCCCn1nnnc1C(c1ccccc1)N1CCC2(CC1)C(=O)NCN2c1ccccc1 (stereo not drawn),4%,20%
O=C(CSc1ccc2c(c1)OCCO2)Nc1ccccc1,2%,9%
COc1ccc(-c2ccc3[nH]c4c(c3c2)CCN2C[C@@H]([C@H](C)O)[C@@H](N(C)C(=O)Nc3cc(Cl)cc(Cl)c3)C[C@@H]42)cc1,-7%,0%
COCOCCn1cc(CN2CCS(=O)(=O)N(Cc3ccc(-c4ccc(Cl)nc4)cc3)C(C(C)C)C2=O)nn1 (stereo not drawn),-3%,u
CCCN(C(=O)CSc1nnc(-c2ccncc2)n1CCC)c1c(N)n(Cc2ccccc2)c(=O)[nH]c1=O,-13%,-14%
Cc1ccc(CN2C(=O)c3ccccc3C2c2nnnn2C(C)C)cc1 (stereo not drawn),9%,0%
COc1ccc(-c2cccc(N3CCN(c4ccccn4)CC3)n2)cc1OC,-23%,-18%
O=S1(=O)C[C@@H](N2CCN(CC3CC3)CC2)[C@H](COCc2ccccc2)N1,-9%,-12%
